Bioassay records from PubChem.
GLA inh pH 4.5 = qHTS Assay for Inhibitors of Human alpha-Galactosidase at pH 4.5 | 230,000 tested, under 10 active | Alpha-galactosidase A (Homo sapiens), P06280 | activity change, negative = inhibition, % at 105 µM | purified enzyme, 4-MU-alpha-Gal fluorescence, pH 4.5; inconclusive = small, poorly fitted or top-dose-only inhibition, or a rising curve; inactive = flat fitted curve, though single readings scatter; no compound was filed as active;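 further: 0% = full activity with enzyme and -100% = basal without enzyme; dose as in the result columns while the protocol names 77 µM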
miR-21 reporter = qHTS Assay for Modulators of miRNAs and/orActivators of miR-21. HeLa miR-21 FLuc reporter, luciferase, 48 h. Potency, µM (top dose mostly 38.3 µM), inactives show at the top dose reporter change, positive = more light. 340,000 tested, under 10 active. AID 2288, 2010; active = well fitted rising curve with a large enough effect; inconclusive = small, poorly fitted or top-dose-only effect; inactive = no such curve, though single readings can be large or run the other way;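 further: % of control where 0% means no effect; miR-21 action dims this reporter so a rising signal means less miR-21 action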
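HeLa cells stably expressing CMV-driven firefly luciferase with a downstream miR-21 binding sequence, endogenously expressing miR-21, were treated with titrations (up to about 40uM final) for 48 hours at 37 degree Celsius. Luciferase luminescence was read after lysis.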
Rango dissoc inh = qHTS Assay for Inhibitors of RanGTP induced Rango (Ran-regulated importin-beta cargo) - Importin beta complex dissociation; Snurportin-1 (Homo sapiens) + GTP-binding nuclear protein Ran (Homo sapiens) + Importin …; Biochemical FRET Rango-importin beta, RanGTP-induced dissociation; Potency, µM (titrated, usually from 46.1 µM), for inactives: top-dose activity change, negative = inhibition; hit rate 0.071% among 340,000; active means falling FRET ratio curve, often poorly fitted, with flat reads before Ran was added; inconclusive means other falling curves, or compound fluorescence or quenching; inactive means flat or rising ratio curve;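 further: potency means the concentration at half of the fitted maximal effect; % of control where 0% means no effect; nearly all actives have a fitted effect of over 45% in size; -100% = wells without RanGTP and RCC1; the record marks most hits as doubtful in a second field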
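Rango FRET biosensor (snurportin-1 IBB flanked by N-terminal EYFP and C-terminal CFP10) at 0.1 uM, with 0.25 uM importin beta in PBS, 1mM DTT, 0.02% Tween-20, 0.1% BSA. 0.6 uM Ran, 2mM GTP and 0.2 uM RCC1 were then added for 45 min at room temperature. Inhibition read as loss of FRET rise.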
Rango complex inh = qHTS Assay for Inhibitors of Rango (Ran-regulated importin-beta cargo) - Importin beta complex formation. Importin subunit beta-1 (Homo sapiens), Q14974. Rango CFP/YFP FRET sensor + importin beta, 45 min. Potency, µM (series often up to 92.2 µM), for the others: at the top dose inhibition of complex formation. hit rate 0.031% among 340,000. AID 540263, 2011; active = rising FRET ratio curve, often small or poorly fitted; inconclusive = mostly compound fluorescence or quenching in the first reads; inactive = flat curves in all reads;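 further: potency means the concentration at half of the fitted maximal effect; 0% = DMSO wells and 100% = buffer wells lacking importin beta; nearly all actives have a fitted effect of over 15% in size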
Target sequence (Q14974 whole entry, looked up): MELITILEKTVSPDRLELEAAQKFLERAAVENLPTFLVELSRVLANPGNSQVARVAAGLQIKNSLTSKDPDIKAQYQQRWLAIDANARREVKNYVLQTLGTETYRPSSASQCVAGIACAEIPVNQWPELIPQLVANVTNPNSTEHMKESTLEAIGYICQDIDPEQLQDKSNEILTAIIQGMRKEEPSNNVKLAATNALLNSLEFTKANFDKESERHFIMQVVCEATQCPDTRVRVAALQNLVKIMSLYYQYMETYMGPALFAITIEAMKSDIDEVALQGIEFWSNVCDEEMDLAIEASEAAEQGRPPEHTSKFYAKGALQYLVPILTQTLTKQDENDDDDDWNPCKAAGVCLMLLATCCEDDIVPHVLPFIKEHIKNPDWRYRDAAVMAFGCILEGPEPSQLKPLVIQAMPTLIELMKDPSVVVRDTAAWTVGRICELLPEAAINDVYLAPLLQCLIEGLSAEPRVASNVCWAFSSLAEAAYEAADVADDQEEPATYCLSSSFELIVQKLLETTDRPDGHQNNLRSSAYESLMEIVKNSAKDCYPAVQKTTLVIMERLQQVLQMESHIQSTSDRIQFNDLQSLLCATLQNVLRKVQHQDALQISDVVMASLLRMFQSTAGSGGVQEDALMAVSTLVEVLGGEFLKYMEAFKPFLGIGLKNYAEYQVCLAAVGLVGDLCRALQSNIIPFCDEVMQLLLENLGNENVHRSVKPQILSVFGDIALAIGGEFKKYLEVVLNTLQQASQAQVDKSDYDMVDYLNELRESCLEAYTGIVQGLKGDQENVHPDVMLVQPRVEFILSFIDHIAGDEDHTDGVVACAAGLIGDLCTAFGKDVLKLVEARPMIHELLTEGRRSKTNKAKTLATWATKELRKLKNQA
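FRET biosensor (snurportin 1 IBB flanked by EYFP and cerulean), 50 nM, with compound 5 min, then 0.125 microM importin beta in PBS, 1 mM DTT, 0.02% Tween-20, 0.1% BSA. CFP/YFP ratio read after 45 min at room temperature; pre-read flags interference.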
Starred values were filed as active, the others as inactive; u = inconclusive; x = no result given; & = joins results of further samples. Only part of the results is shown (hit frequency here may not be typical).

#	canonical_smiles	GLA inh pH 4.5	miR-21 reporter	Rango dissoc inh	Rango complex inh
1	Cc1ccc(SCC(=O)c2sc(-c3ccccc3)nc2C)cc1	-4	-7%	2%	-0.1%
2	CCOC(=O)CN/C=C(\C#N)c1ccc(F)cc1	10	-1%	11%	-1.6%
3	CC1CCC(C(C)C)C(=O)/C1=C\c1ccc(NC(=O)CCC(=O)O)cc1 (stereo not given)	-6	0%	-4%	0.4%
4	COc1ccc(-c2nc(S(=O)(=O)c3ccccc3)c(N3CCOCC3)o2)cc1	5	-5%	-4%	3.0%
5	O=C1CCC/C(=N/NC(=O)c2cc(NS(=O)(=O)c3cccs3)cc(NS(=O)(=O)c3cccs3)c2)C1	-22	0%	u	u
6	CC(=O)C1=NN(c2ccccc2)C2(S1)S/C(=C\c1ccccc1)C(=O)N2c1ccccc1 (stereo not given)	-4	0%	9%	-0.1%
7	CC(C)(C)c1cc(C(=O)NCCN2CCCC2)cc(C(C)(C)C)c1	-6	-28%	u	-0.1%
8	Cc1ccc(NC(=O)CCn2nc(C)cc2C)cc1	2	-11%	7%	0.1%
9	COc1cc(OC)cc(-c2c(-c3cccs3)c3cc(-c4ccc5[nH]ccc5c4)ccc3n2C)c1	x	x	-15%	u
10	COc1ccc(/C(C)=N\NC(=O)c2ccc3c(c2)OCO3)cc1OC	0	-22%	x	x
11	O=C1/C(=C\Nc2ccc(Cl)cc2)CCN1c1ncccn1	5	-62%	-13%	-1.5%
12	CC(C)CNC(C(=O)Nc1ccc([N+](=O)[O-])cc1Br)c1ccccc1 (stereo not given)	-4	2%	5%	-0.5%
13	CC(CN1CCN(C)CC1)OC(=O)c1ccc(Cl)cc1Cl (stereo not given)	-8	-7%	0%	1.3%
14	NS(=O)(=O)c1ccc(NC(=S)NNC(=O)c2ccc(Br)o2)cc1	x	-4%	16%	-3.4%
15	Cc1nc([N+](=O)[O-])cn1C(C)C	13	2%	15%	0.6%
16	CCn1cc(C(=O)NCc2ccccn2)c(=O)c2cc(F)c(N3CCN(C)CC3)cc21	1	-8%	10%	-1.3%
17	CCOC(=O)C1=C(C)N(Cc2ccc(C(=O)O)cc2)C(=O)NC1c1ccc([N+](=O)[O-])cc1 (stereo not given)	2	-8%	16%	1.5%
18	O=C1CSC(=S)N1Cc1cccnc1	-5	u	-16%	u
19	O=C(COc1cc2oc(=O)c3c(c2cc1Cl)CCC3)Nc1ccccn1	x	-8%	23%	2.9%
20	CCCCn1c(NC(=O)c2ccccc2)nc2ccccc21	-6	17%	-3%	7.9%
21	COc1ccnc(Oc2ccc(F)cc2)c1C(=O)N/C=N/OCc1c(Cl)cccc1Cl	-9	-12%	-4%	-1.7%
22	COc1cccc(Oc2ccc(S(=O)(=O)N3CCCC3)cc2[N+](=O)[O-])c1	x	3%	-7%	0.5%
23	O=C(NNc1ccc(Cl)cc1)c1c(F)cccc1Cl	-3	-1%	-13%	0.9%
24	COc1ccc(N2CCN(C(=O)CSc3nnc(-c4ccco4)n3C)CC2)cc1	3	10%	13%	0.8%
25	COc1ccc([C@@H]2C[C@H](c3ccccc3)Oc3cc(C)cc(C)c32)cc1	2	1%	11%	-0.3%

More structures:
#	canonical_smiles	GLA inh pH 4.5	miR-21 reporter	Rango dissoc inh	Rango complex inh
26	COCC(=O)Nc1cc(C)cn(Cc2ccc(F)cc2)c1=O	x	-11%	3%	-1.3%
27	Cc1cc(C)c(C)c(S(=O)(=O)NC(C(=O)O)C(C)C)c1C (stereo not given)	0	0%	20%	0.2%
28	O=[N+]([O-])c1ccc(Oc2cccnc2)nc1	1	8%	14%	1.1%
29	Fc1ccc(-c2ccc3c(c2)C2CC3CCN2)cc1 (stereo not given)	x	x	-5%	7.7%
30	O=C(C[C@@H]1C/C=C\CCCC(=O)OC[C@@H](c2ccccc2)NC1=O)NCCO	x	x	-21%	2.3%
31	COc1ccccc1CC(NC(C)=O)C(=O)NC1CCN(C(=O)c2ccc(C)cc2)CC1 (stereo not given)	x	-2%	-11%	-3.3%
32	C[C@H](CO)N1C[C@H](C)[C@@H](CN(C)S(C)(=O)=O)Oc2ccc(NC(=O)c3ccncc3)cc2C1=O	x	x	-14%	-2.2%
33	CCc1nc(SCC(=O)NNC(=O)c2ccc(OC)cc2)c2ccccc2n1	5	-2%	9%	-1.2%
34	O=C(Nc1ccccc1Cl)c1ccc2nsnc2c1	6	-44%	0%	-0.7%
35	O=C(CSc1nnc2ccc(-c3ccccn3)nn12)Nc1ccccc1F	x	x	20%	2.6%
36	C/C(=N\NC(=O)c1c(Cl)cnn1C)c1cccc(NC(=O)COc2ccccc2)c1	6	-15%	0%	-0.2%
37	COc1ccc(NS(=O)(=O)c2cccc(C(=O)NCCc3ccc(S(N)(=O)=O)cc3)c2)cc1	x	x	20%	0.9%
38	CC(=O)NCCc1ccc(O)cc1	-6	1%	-1%	0.2%
39	COc1cc(C(=O)Nc2c(C(=O)O)[nH]c3ccc(C)cc23)cc(OC)c1OC	x	1%	2%	-3.1%
40	COc1ccc([N+](=O)[O-])cc1NC(=O)c1ccccc1N(C)S(C)(=O)=O	2	-3%	-2%	0.3%
41	Cc1ccc(OC(=O)CCC(=O)Nc2ccc(S(=O)(=O)Nc3cc(C)on3)cc2)cc1	6	-2%	-8%	-6.4%
42	Cc1ccc(S(=O)(=O)N2CCN(C(=O)CN3C(=O)c4ccc([N+](=O)[O-])cc4C3=O)CC2)cc1C	x	x	24%	-4.1%
43	O=C(CN1C(=O)CCC1=O)Nc1ccc2c3c(cccc13)CC2	0	-4%	-8%	2.3%
44	O=C(Nc1ccncc1)Nc1ccc(F)c(Cl)c1	5	6%	7%	-0.1%
45	Cc1ccc(-c2nn(-c3ccccc3)cc2NC(=O)CCl)cc1	-2	u	1%	1.1%
46	CCc1ccc(NC(=O)Cn2c(=O)c3cccn3c3ccccc32)cc1	x	-16%&21%	1%	0.5%
47	CN(CCCCCCN(C)Cc1ccccc1O)Cc1ccccc1O	x	-3%	2%	3.5%
48	COc1ccccc1CC(=O)N1CCN(c2ccccc2F)CC1	x	0%	-17%	-0.6%
49	CCOc1ccc(NC(=O)CN2CCC(NC(=O)C3CCCCC3)CC2)cc1	2	-2%	x	x
50	CC[C@H](C)[C@H](NC(=O)[C@H](Cc1ccc(O)cc1)NC(=O)[C@@H](N)C(C)C)C(=O)N[C@@H](Cc1cnc[nH]1)C(=O)N1CCC[C@H]1C(=O)N[C@@H](Cc1ccccc1)C(=O)O	-6	1%	1%	-2.9%

The list continues:
#	canonical_smiles	GLA inh pH 4.5	miR-21 reporter	Rango dissoc inh	Rango complex inh
51	Nn1cc(-c2ccccc2)nc1SCC(=O)NCC1CCCO1 (stereo not given)	-3	-8%	-6%	0.7%
52	CCC(=O)N1CCN(c2cc(N3CCN(C)CC3)c(F)cc2[N+](=O)[O-])CC1	3	6%	4%	1.1%
53	CCCCSc1n[nH]c(=S)c2nc[nH]c12	x	x	6%	1.1%
54	Cc1ccc(C2/C(=C(\O)c3ccc4c(c3)OCCO4)C(=O)C(=O)N2Cc2cccnc2)cc1 (stereo not given)	x	-2%	11%	1.1%
55	COc1cccc(CN(CC(=O)NCc2ccccc2)S(=O)(=O)CCl)c1	x	x	1%	-0.1%
56	COc1cccc(CNC(=O)c2ccccc2SCC(=O)N2CCCC2)c1	x	x	1%	-0.7%
57	C1=CC2c3ccccc3NC(c3ccncc3)C2C1 (stereo not given)	-14	-10%	-20%	-2.6%
58	CCOC(=O)c1cnc(SCC(=O)OC)nc1N	1	-7%	9%	-0.6%
59	O=C(NCc1ccco1)C1CC(c2cc(C(F)(F)F)cc(C(F)(F)F)c2)=NO1 (stereo not given)	-3	u	36%	-3.6%
60	Cc1cc(C)n2nc(SCC(=O)N3CCOCC3)nc2n1	x	x	10%	-2.9%
61	COc1ccc(N(C(=O)CCC(=O)Nc2cc(C)on2)C(C(=O)NC2CCCC2)c2ccco2)cc1 (stereo not given)	3	-13%	-6%	u
62	CCS(=O)(=O)c1ccc2oc(SCC(=O)Nc3ccc(OC)c(OC)c3)nc2c1	-2	-27%	-16%	-1.6%
63	COc1ccc(C(C)=O)cc1CN1C(=O)NC(CC(C)C)C1=O (stereo not given)	-1	-12%	0%	-1.9%
64	CN(C)c1ccc(S(=O)(=O)N2CCCCC2)cc1NC(=O)CCNC(=O)c1ccc(Cl)cc1	x	x	-9%	-5.1%
65	Cc1ccc(-c2noc(CNC(=O)c3ccc4c(c3)OCO4)n2)cc1	x	-17%	4%	1.5%
66	CCOc1cccc(SCc2noc(C(=O)NCCOC)c2C(=O)O)c1	-5	-20%	-6%	-0.3%
67	CCC(C)n1c(SCC(=O)NCc2ccco2)nnc1-c1cccc(S(=O)(=O)N2CCOCC2)c1 (stereo not given)	7	0%	5%	0.6%
68	O=C(COc1ccc(S(=O)(=O)N2CCCCC2)cc1)Nc1ccccc1F	x	2%	13%	-3.9%
69	CS/C(N)=N/S(=O)(=O)c1ccc(NC(C)=O)cc1	1	1%	-16%	4.4%
70	Cc1c(NC(=O)CSc2nnnn2-c2ccc(O)cc2)c(=O)n(-c2ccccc2)n1C	9	-2%	0%	u
71	NC(=O)c1nsc(C(=O)N(CC(=O)NC2CCCC2)Cc2ccc3c(c2)OCO3)c1N	-2	-7%	1%	1.1%
72	O=C(COC(=O)c1ccccc1-n1cnnn1)c1ccc(F)c(F)c1	x	x	-6%	1.8%
73	CS(=O)(=O)N1CCN(CCN2C(=O)c3cccc4cccc(c34)C2=O)CC1	0	-2%	-8%	-0.8%
74	CCC(C)(C)NC(=O)C(c1cccc(OC)c1OC)N(C(=O)CCC(=O)Nc1cc(C)on1)c1ccc2c(c1)OCCO2 (stereo not given)	x	-8%	5%	-6.5%
75	O=C(CCC(=O)N(CC(=O)NC1CCCC1)Cc1cccs1)Nc1nccs1	2	0%	21%	-1.1%

(cont.)
#	canonical_smiles	GLA inh pH 4.5	miR-21 reporter	Rango dissoc inh	Rango complex inh
76	COc1ccc(/C(O)=C2/C(=O)C(=O)N(CC3CCCO3)C2c2ccc(OC)c(OC)c2)cc1 (stereo not given)	-15	0%	-9%	0.2%
77	O=C(NCCc1c[nH]c2ccccc12)/C(=C\c1cccs1)NC(=O)c1ccccc1	-7	1%	2%	-0.7%
78	C=CCNC(=O)CCCC(=O)NCC=C	-2	-1%	-3%	5.1%
79	CCOC(=O)c1c[nH]c(=O)c(Br)c1O	-2	-7%	6%	-1.5%
80	Cc1cnn(-c2cc(N/N=C/c3cccc(F)c3)ncn2)c1	-2	-8%	-4%	2.8%
81	CCOC(=O)C1(Cc2cccc(OC)c2)CCCN(Cc2cnn(C)c2)C1 (stereo not given)	3	-4%	-5%	0.2%
82	COc1ccc(N2C(=O)CC(Sc3ncccc3C(=O)O)C2=O)cc1 (stereo not given)	-12	1%	4%	1.8%
83	Cc1cc2occ(CC(=O)N(C)CC(=O)Nc3ccccc3Br)c2cc1C	x	x	34%	-0.7%
84	Cc1csc(SCC(=O)Nc2ccccc2)n1	x	-29%	5%	4.4%
85	CCOC(=O)C1(Cc2cccc(Cl)c2)CCCN(C(=O)C(C)(C)C)C1 (stereo not given)	x	-14%	37%	5.8%
86	O=C(NC1CCCCC1)[C@@H]1CC=C[C@@H]2CCN(C3CCCCC3)C(=O)[C@@H]21	x	x	23%	-0.2%
87	COC(=O)CCCC1=CC2=CC(=O)C(C)(OC(=O)CCc3ccccc3)C(=O)C2=CO1 (stereo not given)	2&-2&-17	3%	u	u
88	O=C(N/N=C/c1ccc(-c2cccc(C(F)(F)F)c2)o1)c1ccccc1Br	-11	-32%	u	u

From compound 87 up to 88, copied from above:
#	canonical_smiles	GLA inh pH 4.5	miR-21 reporter	Rango dissoc inh	Rango complex inh
87	COC(=O)CCCC1=CC2=CC(=O)C(C)(OC(=O)CCc3ccccc3)C(=O)C2=CO1 (stereo not given)	2&-2&-17	3%	u	u
88	O=C(N/N=C/c1ccc(-c2cccc(C(F)(F)F)c2)o1)c1ccccc1Br	-11	-32%	u	u
